H5N1 antiviral: antiviral screen in MDCK cells, H5N1 avian flu; 96,000 compounds, 0.07% hits; inhibition, % at 50 µM; cytopathic effect, luminescence, 72 h; active compounds read high; no value below 0 was filed and about half of the inactive calls have no number; reference of the scale not given here; AID 740; in the data active = inhibition above about 25%
* marks the source's active call; other numbers are inactive results; i = inactive.

| structure | H5N1 antiviral |
| --- | --- |
| O=C(O)CCn1c(=O)[nH]c2ccccc2c1=O | 0.7 |
| COc1ccc(CN(C(=O)CN2C(=O)C(C)Oc3ccccc32)C2CCCC2)c(OC)c1 (configuration not stated) | i |
| COc1ccc2nc(SCC(=O)/C(C#N)=C(\C)N)[nH]c2c1 | 1.2 |
| CS(=O)(=O)N(CC(=O)NCC1CCCO1)Cc1ccc(Cl)cc1 (configuration not stated) | 1.5 |
| Cc1ccc(C)c(N(CC(=O)NCCSCc2ccco2)S(C)(=O)=O)c1 | i |
| COc1cc(C=O)ccc1OCC(=O)N1CCOCC1 | i |
| COc1ccc(-c2[nH]ncc2/C=N\NS(=O)(=O)c2ccc(Cl)cc2)cc1 | 0.5 |
| Cc1c(N(C)C(=O)c2ccccc2F)c(=O)n(-c2ccccc2)n1C | 0.6 |
| O=C(CCCOc1ccccc1)Nc1nncs1 | 0.2 |
| CCN(CC)CCCNC(=O)Cn1nc(-c2ccccc2)ccc1=O | 1.1 |
| CS(=O)(=O)N(CC(=O)Nc1ccccc1C(=O)NCc1ccccc1)c1ccc2c(c1)OCCO2 | 0.5 |
| CCOCCN1CCN(c2nnc3n2-c2ccc(Cl)cc2C(c2ccccc2Cl)=NC3)CC1 | 1.2 |
| CCOC(=O)CSC1=C(C#N)C(c2ccc(C)o2)CC(=O)N1 (configuration not stated) | 1.1 |
| N/C(=N\OS(=O)(=O)c1ccc(Cl)cc1)c1ccncc1 | i |
| CCn1ccnc1C(O)c1cccc(OC)c1OC (configuration not stated) | 1.5 |
| C=CCN(C(=O)CNC(=O)c1ccco1)C(C(=O)NC1CCCCC1)c1ccc(F)cc1 (configuration not stated) | i |
| CCCCNC(=O)CCCn1c(=O)c2ccccc2n(CC(=O)NCCC2=CCCCC2)c1=O | 0.1 |
| CC(C)Sc1nc2c(c(=O)[nH]c(=O)n2C)n1C | i |
| Cc1ccc(-c2nnc(Nc3ccc(CC(N)=O)cc3)c3ccccc23)cc1 | 0.9 |
| COc1ccc(-n2nnnc2/C=C\Nc2ccccc2C(=O)c2ccccc2)cc1 | 1.2 |
| CNC(=O)CC1C(=O)N(C)C(=S)N1NC(=O)c1ccc(Cl)cc1 (configuration not stated) | i |
| COCCCNC(=O)c1ccc2c(c1)ncn2-c1ccccc1OC | 0.4 |
| Cc1ccc(C(=O)COC(=O)CNC(=O)c2cccs2)cc1 | 0.7 |
| N#CC(C(=O)C12CC3CC(CC(C3)C1)C2)c1nc2ccccc2[nH]1 (configuration not stated) | i |
| CCCCCCCCCCn1c2c(c(=N)c3c1CCC3)CCC2 | i |
| CN1C(=S)SC(C)(NO)C1(C)C (configuration not stated) | i |
| CCc1nc(SCC(=O)N2CCC(C)CC2)c2c(=O)n(C)c(=O)n(C)c2n1 | 2.4 |
| COc1cc2[nH]c(=O)n(Cc3ccccc3Cl)c(=O)c2cc1OC | i |
| COc1ccc(S(=O)(=O)N2CCCN(CCC(=O)Nc3cccc(C(F)(F)F)c3)CC2)cc1 | 0.2 |
| O=S(=O)(Nc1ccncc1)c1ccc(Cl)cc1 | i |
| CCOc1ccc(/C(O)=C2\C(=O)C(=O)N(CCN(C)C)C2c2cccc(OC)c2OC)cc1Cl (configuration not stated) | i |
| O=C(Nc1ccc(Cl)cc1)c1cc2nc(C3CC3)cc(C(F)(F)F)n2n1 | i |
| Nc1cc(-c2ccc(Cl)cc2)nn1S(=O)(=O)c1cccc2nsnc12 | 2.2 |
| CC(C)CC(=O)NC(=S)Nc1ccccc1F | i |
| CCOC(=O)/C(N=Nc1ccc(Cl)cc1)=C(/O)c1ccc([N+](=O)[O-])cc1 | i |
| O=C(CNS(=O)(=O)c1ccc2ccccc2c1)OCc1nnc(-c2ccccc2)o1 | i |
| COc1ccc(C2(C(=O)NCc3ccco3)CCCC2)cc1OC | 0.1 |
| CCCCC(O)CN1CCC(c2ccccc2)CC1 (configuration not stated) | i |
| O=C1NCCCc2nonc21 | i |
| COc1cccc(CNC(=O)C2CCCN(c3nc4ccccc4o3)C2)c1 (configuration not stated) | i |
| Cc1ccccc1-n1c(O)c(C=NCCN2CCOCC2)c(=O)[nH]c1=O | 0.1 |
| Cc1nnc(Sc2nc3c(c(=O)[nH]c(=O)n3C)n2CCCc2ccccc2)s1 | 0.9 |
| COCCSc1ccccc1C(=O)N1CCOCC1 | i |
| COCCn1c(C)cc(C(=O)CSc2ncnc3sc4c(c23)CCC4)c1C | i |
| Cc1ccc(CNC(=O)C2CC(=O)N(C3CCCCCCC3)C2)cc1 (configuration not stated) | i |
| Nc1nnnn1/N=C/C=C/c1ccccc1 | 0.6 |
| CC(C)NC(=O)c1onc(CSc2ccc(F)c(F)c2)c1C(=O)O | 1.7 |
| CSCCC(NC(=O)c1ccco1)C(=O)OCC(=O)Nc1sccc1C#N (configuration not stated) | 1.8 |
| Cc1cc(C)n2nc(C(=O)N3CCOCC3)nc2n1 | 0.1 |
| COC(=O)CN(c1ccc(F)cc1)S(=O)(=O)c1ccc2c(c1)OCCO2 | i |
| CCCCn1c(O)c(C(C)=NCC2CCCO2)c(=O)[nH]c1=O (configuration not stated) | 0.7 |
| CCOC(=O)C1=C(C)OC(N)=C(C#N)C1c1ccoc1 (configuration not stated) | i |
| COc1ccc(OC)c(C(=O)CSc2nc3ccccc3n2CC(=O)NC(C)(C)C)c1 | i |
| CCOc1ccccc1C1CC(=O)Nc2cc(OC)c(OC)c(OC)c21 (configuration not stated) | 0.0 |
| COc1ccccc1Oc1cc(C#N)c(C#N)cc1-n1nnc2ccccc21 | 1.2 |
| Cc1cc(C)c(NC(=O)/C(=C/c2ccco2)c2ccccc2)c(C)c1 | 2.4 |

The listing continues.
| structure | H5N1 antiviral |
| --- | --- |
| Cc1cc(-c2ccccc2)c2nncn2n1 | 0.9 |
| COc1ccc(NC(=O)C(Cc2ccccc2)NC(=O)c2ccco2)cc1OC (configuration not stated) | i |
| Cn1c(=O)n(CC(=O)Nc2ccccc2)c2ccccc21 | i |
| CCOC(=O)C1CCCN(C(=O)c2sc3nc(-c4ccc(F)cc4)cn3c2C)C1 (configuration not stated) | 0.5 |
| CC1C/C(=C/c2cccn2C)C(=O)/C(=C/c2cccn2C)C1 (configuration not stated) | i |
| Cc1onc(-c2ccccc2)c1C(=O)Nc1nnc(N2CCCCCC2)s1 | i |
| Cc1nn(C)c(=O)n1-c1ccc(OCc2ccccc2)cc1 | 1.1 |
| Nc1ccc(Sc2ccccc2CC(=O)O)cc1 | i |
| CC(=O)N1CCc2cc(S(=O)(=O)NCCC(=O)NCCc3ccc(C)cc3)ccc21 | 0.8 |
| CCn1c(SCC(=O)NCCc2ccc(Cl)cc2)nnc1-c1cccs1 | i |
| CCOc1ccccc1NC(=O)C(=O)NCC1CCCN1CC (configuration not stated) | i |
| CCOC(=O)c1sc2nc(CC(=O)OC)nc(NCCN3CCOCC3)c2c1C | 1.2 |
| Cc1ccc(CCNC(=O)C2CCN(S(=O)(=O)c3c(C)nn(C)c3C)CC2)cc1 | 1.2 |
| Cn1cccc1C(=O)NC(=O)CSc1nnc(C2CC2)n1-c1ccccc1 | i |
| NC(=O)c1ccccc1N=Cc1ccccn1 | 1.7 |
| C=CCn1c(-c2cccnc2Cl)nc2cc(Cl)c(Cl)cc21 | 0.1 |

New compounds follow.
smiles | H5N1 antiviral
Cc1nnc(NC(=O)c2c(F)c(F)c(F)c(F)c2F)s1 | 0.0
Cc1ccc(NC(=S)NCCN2CCOCC2)cc1C | 0.1
CCOC(=O)CC(N)c1ccc2c(c1)OCO2 (configuration not stated) | 0.4
O=C(CSc1nc2ccc([N+](=O)[O-])cc2[nH]1)NCCc1ccccc1 | 1.8
N#Cc1ccccc1N=C1CCCN1Cc1ccccc1 | i
S=C(NCCSCc1ccc(Cl)cc1)Nc1ccccc1 | i
O=C(CCCCCn1c(=O)[nH]c2ccccc2c1=O)NCCc1c[nH]c2ccccc12 | i
COc1ccc(C2C3=C(CC(C)(C)CC3=O)Oc3ncn(CC(C)C)c(=N)c32)cc1 (configuration not stated) | 3.3
Cn1c(Cn2c(=O)sc3ccccc32)nnc1SCc1cccc(F)c1 | i
COc1ccc(Cn2nnnc2C(c2cc3cc(C)ccc3[nH]c2=O)N2CCOCC2)cc1 (configuration not stated) | 1.0
Cc1csc(=O)n1CCC(=O)O | 0.5
CN1CCC(N2CCN(c3cccc(C(F)(F)F)c3)CC2)CC1 | i
CCc1ccc(NC(=O)c2onc(C)c2Cl)cc1 | 1.0
CCOc1c2ccc(C(=O)NCc3ccc(C)cc3)cc2nn1CC | 0.2
CCOC(=O)Cn1nc(C)c2ccccc2c1=O | 0.7
CC(C)OC(=O)NCN1C(=O)C2C3C=CC(C3)C2C1=O (configuration not stated) | i
CCN(C(=O)CN1CCN(C)CC1)c1cccc2ccccc12 | i
CCOC(=O)C1CCN(C(=O)CCc2c(C)nc3cc(-c4ccccc4)nn3c2C)CC1 | 1.1
O=C(NC1=NCCS1)Nc1ccccc1 | i
Cn1c(=O)[nH]c(=O)c2c1nc(N(CCO)Cc1ccccc1)n2Cc1ccccc1Cl | 4.1
COc1ccc(S(=O)(=O)N(C)CC(=O)Nc2c(F)cccc2F)cc1 | 0.4
CO/N=C/C(C#N)c1ncc(C(F)(F)F)cc1Cl (configuration not stated) | i
Cc1cccc(C)c1OCC(=O)N=Nc1c(O)[nH]c2ccc(Br)cc12 | 0.1
CN1CCN(C(=O)C23CCC(C)(c4nc5ccccc5nc42)C3(C)C)CC1 (configuration not stated) | 0.3
CN(NC(=O)c1ccccc1)c1nc2ccccc2nc1C(F)(F)F | i
CCOC(=O)N1CCN(c2cc3[nH]c(=S)[nH]c3cc2F)CC1 | i
N#Cc1c(N)nc2c(c1N)CC(COc1ccccc1)O2 (configuration not stated) | i
CC1CN(c2ncnc3c2cnn3-c2ccc(Cl)cc2)CC(C)O1 (configuration not stated) | i
Clc1cccc(CSc2nccn2-c2ccccc2)c1 | i
O=C(O)C1C2C=CC(C2)C1C(=O)Nc1ccc2c(c1)OCCO2 (configuration not stated) | i
Cc1ccc(Nc2nc(CSc3nnnn3-c3ccccc3)cs2)cc1 | 5.1
CCc1ccc2[nH]c(=O)c(CN(CCN(C)C)C(=O)Nc3ccccc3OC)cc2c1 | i
Cc1csc2ncc(C(=O)Nc3ccc(C(F)(F)F)cc3)c(=O)n12 | i
O=C1NC(=O)C2(Cc3ccccc3N3CCOCC32)C(=O)N1c1ccccc1 (configuration not stated) | i
O=C(Oc1cc2oc(=O)c3c(c2cc1Cl)CCCC3)c1ccco1 | 0.2
CCN(CC)CCCNC(=O)C(C)n1nc(C)c2sc3ccccc3c2c1=O (configuration not stated) | i
Cc1[nH]c2ccc(-c3nnc(SCC(=O)c4ccccc4F)o3)cc2c1C | 0.8
COc1ccc(C(=O)Nc2cc(C)cc(C)c2)cc1S(=O)(=O)N1CCOCC1 | 0.1
O=C(CSc1nnc2sc3ccccc3n12)NCc1ccco1 | 15
CCOc1ccc(-n2c(=O)cc(N3CCN(c4ccccc4)CC3)[nH]c2=O)cc1 | i
C/C(=N\NC(=O)COc1ccc([N+](=O)[O-])cc1)C(C)(C)C | i
O=C(NCC1CCCO1)c1cccc(-n2cnnn2)c1 (configuration not stated) | i
COc1ccc(Sc2nnc(-c3ccccc3)cc2C#N)cc1 | 0.1
O=C(c1ccco1)N1CCN(C(=O)c2cnn3c(C(F)(F)F)cc(-c4cccs4)nc23)CC1 | 3.2
O=C(CCNS(=O)(=O)c1cccc2nonc12)N1CCN(c2cccc(Cl)c2)CC1 | 3.0
O=C(CCN1C(=O)c2ccccc2C1=O)NC1=NCCS1 | i
COc1ccccc1CNc1n[nH]c(NCc2ccccc2OC)n1 | i
CCOC(=O)C1CCCN(C(=O)C2CCCN(S(C)(=O)=O)C2)C1 (configuration not stated) | 0.3
COC(=O)c1sccc1NC(=O)/C=C\c1ccc(Cl)cc1Cl | 0.7
CCOc1ccc(C2/C(=C(\O)c3cccc(OC)c3)C(=O)C(=O)N2c2cc(C)on2)cc1OC (configuration not stated) | 1.1
COC(=O)c1[nH]c2ccc(C)cc2c1NC(=O)CN1CCCC(C)(C)C1 | i
Cc1cc2oc(=O)cc(CN3CCN(C/C=C/c4ccccc4)CC3)c2cc1O | i
Cc1c(Br)c([N+](=O)[O-])nn1CC(=O)N1CCCc2ccccc21 | i
CCOC(=O)C(C)n1cnc2c(oc3ccccc32)c1=O (configuration not stated) | 1.2
Cc1ncc(N=Nc2ccccc2Cl)c(-c2ccccc2)n1 | 0.8
Cc1c(C(=O)O)oc2ccc(S(=O)(=O)NCc3ccc(F)cc3)cc12 | 0.7

(listing goes on)
smiles | H5N1 antiviral
COc1ccccc1CNC(=O)c1ccc(CS(=O)(=O)c2ccccc2OC)o1 | 0.5
N#CC1=C(N)Oc2n[nH]c(-c3ccc(F)cc3)c2C1c1cccc(OC(=O)N2CCOCC2)c1 (configuration not stated) | i
COC(=O)c1ccccc1NC(=O)c1nc2nc(C)cc(C(F)F)n2n1 | 1.5
CCOC(=O)N1CCC(N2C(=O)c3ccccc3C2Nc2ccc(Cl)cn2)CC1 (configuration not stated) | i
O=C(COC(=O)C1(c2ccccc2F)CCCC1)N1CCN(C(=O)c2ccco2)CC1 | i
Cc1noc(C)c1COC(=O)COc1ccc2c(C)cc(=O)oc2c1 | 0.5

High-throughput results (PubChem BioAssay)

An excerpt (hit frequency here may not be typical).
